Ecoli growth = inhibitors of Escherichia coli growth | hit rate 0.21% among 330,000 | OD600, 23 h; active compounds read low | AID 1053175 | OD600 absorbance (concentration not given with the values);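 active = OD600 absorbance below the run mean of sample wells minus 3.6 SD, in any replicate, cut at about 0.56 in these data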;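 note: stock transfer was 300 nL into about 60 µL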
rRNA inh HTS = selective bacterial rRNA inhibition in E. coli; E. coli WT GFP vs humanized-ribosome RFP mutants, fluorescence, 24 h; active compounds read low; DMSO median 0, no signal -100; GFP signal change (wild-type ribosome), % (concentration not given with the values); hit rate 1.6% among 350,000;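 active = significant combined selectivity score with lowered wild-type GFP, culture density cut under 30%, mutant RFP and density less affected; inactive = any of these conditions unmet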; note: one replicate is shown; some compounds called inactive have numbers as strong as hits
MLL AF4-AF9 inh = inhibitors of human MLL-AF4/AF9 interaction | AlphaScreen, biotin-AF4 peptide binding to FLAG-AF9 | P42568 | inhibition, % at 10 µM | hit rate 0.47% among 350,000;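 active = every replicate reaching a set inhibition limit, whatever the replicate mean, cut at about 25% in these data; inconclusive = mean inhibition reaches that limit but some replicates miss it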;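 note: 0% = plate neutral control median and 100% = total signal loss; the record names both 10 and 1 µM as test concentration; the first replicate is given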
ALR H2O2 inh = blocks human ALR sulfhydryl oxidase activity | purified ALR, DTT oxidation, H2O2 HRP-luminol luminescence | P55789 | AID 485317 | hit rate 3.8% among 290,000 | inhibition, % (test concentration not listed);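 active = mean and each replicate at 75% or more; inconclusive = only one of the two met; inactive = neither met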;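 note: stock transfer was 7.5 nL into about 7.5 µL; 0% = neutral wells and 100% = wells with inactivated enzyme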
Target sequence (P55789 whole entry, looked up): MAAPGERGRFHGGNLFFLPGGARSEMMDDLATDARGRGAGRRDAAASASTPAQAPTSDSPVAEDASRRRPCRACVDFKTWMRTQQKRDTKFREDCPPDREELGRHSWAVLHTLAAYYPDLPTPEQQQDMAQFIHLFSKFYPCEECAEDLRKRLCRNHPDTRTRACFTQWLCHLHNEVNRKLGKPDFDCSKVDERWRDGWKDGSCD
HNF4A DNA FP = change in binding of human HNF4 alpha to DNA; hit rate 0.3% among 360,000; P41235; activity change, % at 10 µM; AID 1224865; HNF4a-FITC DNA binding, fluorescence polarization, 1 h; in the data active = activity change above about 30%, passing the limit was not always enough;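 note: controls were the assay level and a saturating level of protein; the project sought stronger binding though the title names inhibitors; some compounds called inactive have numbers as strong as hits; positive values seem to mean higher polarization but the record does not say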
Target sequence (P41235 whole entry, looked up): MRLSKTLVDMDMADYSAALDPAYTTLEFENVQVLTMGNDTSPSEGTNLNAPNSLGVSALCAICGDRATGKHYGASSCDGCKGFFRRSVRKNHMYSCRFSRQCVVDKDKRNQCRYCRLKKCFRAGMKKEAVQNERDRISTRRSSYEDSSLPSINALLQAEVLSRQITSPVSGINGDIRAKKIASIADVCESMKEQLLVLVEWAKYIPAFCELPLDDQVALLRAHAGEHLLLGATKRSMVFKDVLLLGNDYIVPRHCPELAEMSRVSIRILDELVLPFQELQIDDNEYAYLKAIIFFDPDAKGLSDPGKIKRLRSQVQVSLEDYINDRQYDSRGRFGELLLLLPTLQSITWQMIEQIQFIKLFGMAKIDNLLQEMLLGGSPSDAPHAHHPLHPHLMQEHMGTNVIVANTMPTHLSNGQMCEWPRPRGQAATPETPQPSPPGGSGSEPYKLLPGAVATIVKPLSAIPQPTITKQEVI
Vif A3G = inhibitors of Vif binding to APOBEC3G peptide, primary screen, biochemical, TR-FRET, GST-Vif 1-94, biotin-A3G peptide, dose response retest (AID 1117319); TR-FRET GST-Vif / biotin-A3G peptide binding; higher % means a stronger effect; test concentration not given here; strong numbers were not always called active; inhibition, %; hits with a dose series show IC50 in µM; hit rate 0.57% among 260,000;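 active = above the screen mean plus three standard deviations and confirmed in dose response; inconclusive = results disagree or hit not tested in dose response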;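 note: Vif residues 1-94 fused to GST binding biotinylated APOBEC3G peptide 110-148; 0% = full assay without inhibitor and 100% = GST in place of GST-Vif; retest series ran down from 100 µM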
FGF22 binding = binders of recombinant human FGF22 by thermal shift. SYPRO orange fluorescence; percent of sucrose octasulfate shift, DMSO zero. calls only at 9.99 µM. hit rate 1.5% among 340,000. AID 651658;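 active = melting point raised past a set limit in the mean and every replicate; inconclusive = no clear call; three in four hits are not shown here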
Target sequence (Q9HCT0 whole entry, looked up): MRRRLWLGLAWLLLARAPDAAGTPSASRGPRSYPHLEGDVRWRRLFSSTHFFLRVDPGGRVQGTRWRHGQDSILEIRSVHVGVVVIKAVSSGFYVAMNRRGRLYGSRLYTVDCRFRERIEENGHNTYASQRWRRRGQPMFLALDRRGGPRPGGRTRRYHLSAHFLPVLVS
rRNA inh HTS OD600 = further read-out of rRNA inh HTS, marked with its call; OD600 change, %; measured here: OD600 growth;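 optical density of the mix in the first replicate; 0 = DMSO median and -100 = no signal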
rRNA inh HTS RFP = recorded beside rRNA inh HTS, whose call it bears; RFP signal change, %; measured here: RFP humanized mutant strains;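 first replicate; 0 = DMSO median and -100 = no signal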
The depositor's hits bear a star; i = inactive; ? = inconclusive; nt = no result given. These rows are one share of the data; count on the stated rates, not on these rows.

SMILES,Ecoli growth,rRNA inh HTS RFP,rRNA inh HTS OD600,ALR H2O2 inh,Vif A3G,rRNA inh HTS,HNF4A DNA FP,MLL AF4-AF9 inh,FGF22 binding
COc1ccc(N(CC(=O)N2CCC(C(N)=O)CC2)S(=O)(=O)c2ccccc2)cc1,0.705,4.4,3.1,-0.9,5.3%,14.1,2.6,-19.4,i
C/C(N)=C(/C#N)C(=O)CSc1nnc(-c2ccccc2Br)o1,0.704,nt,nt,14.4,-1.7%,nt,2.1,nt,nt
COc1cc2c(cc1OC)CN(Cc1nc3ccsc3c(=O)[nH]1)CC2,0.723,nt,nt,-42.2,7.6%,nt,-7.9,nt,nt
O=C(C[C@@H]1C=C[C@@H](NC(=O)Nc2ccc(F)cc2)[C@@H](CO)O1)NCCN1CCCC1,nt,0.9,-2.6,nt,nt,4.5,nt,-1.2,i
O=C(C1=C(O)C(=O)N(CCOCCO)C1c1ccccn1)c1cccs1 (centres undefined),0.69,3.4,11.8,-17.1,-10.0%,12.1,2.2,1.3,i
CCN(C[C@H]1N[C@@](C)(C(=O)OC)[C@H]2C(=O)N(Cc3ccccc3)C(=O)[C@@H]12)S(=O)(=O)c1ccc(C)cc1,0.692,6.3*,-6.8*,nt,12.3%,-21.4*,-3.9,-0.9,i
CCOC(=O)C1(S(=O)(=O)c2ccccc2)CCN(Cc2ccc(Cl)cc2)CC1,0.719,-7.6,-31.9,-16.5,7.5%,-24.8,2.9,nt,nt
O=C(C[C@H]1C[C@H]2c3cc(NC(=O)Nc4ccccc4F)ccc3O[C@H]2[C@H](CO)O1)NCc1cc(F)ccc1F,nt,-4.0,3.4,nt,nt,-1.8,nt,-1.8,i
O=C(/C=C/c1ccc(F)cc1)N1CCCN(C(=O)/C=C/c2ccc(F)cc2)CC1,0.696,nt,nt,-19.2,20.6%,nt,1.7,nt,nt
Cc1ccccc1NC(=O)CN(C)S(=O)(=O)c1cccc2cccnc12,0.722,-2.8,-0.2,-60.2,?,-0.9,1.4,-8.5,i
CCOC(=O)C1=C(C)NC2=C(C1c1ccc([N+](=O)[O-])cc1)S(=O)(=O)c1ccccc12 (centres undefined),0.657,nt,nt,2.3,27.1%,nt,3.1,nt,nt
Cc1cccc(CSc2nncc(=O)[nH]2)c1,0.695,nt,nt,-15.8,1.5%,nt,-4.5,nt,nt
O=C(CC(=O)Nc1ccc(Cl)cc1)N/N=C\c1cccc(F)c1,nt,-1.2,8.4,1.7,nt,6.1,0.3,-2.2,i
CCc1ccccc1NC(=O)CN1CCN(C(=O)CN2C(=O)NC3(CCCCC3C)C2=O)CC1 (centres undefined),0.679,-5.8,2.5,nt,-1.3%,-1.4,-3.1,2.5,i
COc1ccccc1-c1nc(-c2ccccc2)nc(N2CCN(C)CC2)c1C#N,0.696,-19.6,-80.9,-12.0,-0.4%,-56.3,-1.4,23.0,i
C[C@H](CO)N1C[C@H](C)[C@H](CN(C)S(C)(=O)=O)Oc2ccc(NS(=O)(=O)c3ccc(Cl)cc3)cc2CC1=O,nt,-1.4,-0.6,nt,nt,1.8,nt,-3.3,i
C/C(N)=C(/C#N)C(=O)COC(=O)CC12CC3CC(CC(C3)C1)C2,0.748,nt,nt,3.7,17.4%,nt,-2.3,nt,nt
CCCc1cc(-n2ccnc2C)n2c(nc3ccccc32)c1C#N,0.692,-1.4,-3.2,-9.1,nt,0.7,-3.6,7.4,i
CCCS(=O)(=O)c1snnc1C,0.728,nt,nt,-9.0,1.4%,nt,2.1,nt,nt
CC1C(=O)NN=C1C(=O)N/N=C\c1ccc(O)cc1O (centres undefined),nt,-4.6,4.2,98.2*,18.2%,-8.4,0.5,-5.0,nt
COc1ccc(-c2ccc3c(c2)O[C@@H](CN(C)C(=O)Nc2ccccc2F)[C@@H](C)CN([C@H](C)CO)S3(=O)=O)cc1,nt,1.8,1.2,nt,nt,-7.1,nt,3.9,i
COc1cccc(CNC(=O)C[C@H]2CC[C@H](NC(=O)C3CCOCC3)[C@H](CO)O2)c1,nt,-1.6,3.3,nt,nt,2.8,nt,0.5,i
COc1ccc(/C=N/NC(=O)CCNc2n[nH]c(=O)[nH]c2=O)c(OC)c1,nt,-5.6,13.8,-27.1,-6.9%,18.5,0.8,-0.9,i
CC(C)CC#Cc1cnc2c(c1)C(=O)N([C@@H](C)CO)C[C@@H](C)[C@@H](CN(C)CC1CCOCC1)O2,nt,-3.5,4.0,nt,nt,8.6,nt,-4.1,i
Cc1ccc(-n2ncc(C(=O)NC3CC3)c2C2CCN(C(=O)OC(C)(C)C)CC2)c(C)c1,0.655,-1.6,9.1,-0.5,nt,6.5,3.8,1.4,i
COc1ccc2c3c(n(C)c2c1)[C@H](CO)N(C(=O)Cc1ccccn1)CC31CCN(Cc2ccccn2)CC1,nt,-1.3,13.0,nt,nt,3.7,nt,-1.5,i
C[C@H](CO)N1C[C@H](C)[C@@H](CN(C)C(=O)Nc2ccccc2F)Oc2ncc(-c3ccccc3)cc2C1=O,nt,-1.6,9.9,nt,nt,-2.9,nt,-14.8,i
C[C@H](CO)N1C[C@H](C)[C@@H](CN(C)CC2CC2)Oc2c(NC(=O)c3cnccn3)cccc2C1=O,nt,-2.3,9.4,nt,nt,-0.5,nt,-3.3,i
CCCN1CCN(C(=O)C(C)n2nc(C)c3sc4ccccc4c3c2=O)CC1 (centres undefined),0.64,1.9,0.8,-2.3,nt,2.8,-3.1,1.5,i
CS(=O)(=O)Cc1cccc(C(=O)NN(c2ccccc2)c2ccccc2)c1,0.632,-5.0,0.4,25.8,-3.0%,-0.8,3.2,-0.5,i
CCCOc1ccc(Cc2c(O)nc(N)[nH]c2=O)cc1C,0.672,2.2,4.6,33.2,6.7%,7.2,-1.0,-0.6,i
Cc1ccc(-c2csc3ncn(Cc4ccc(C(=O)O)cc4)c(=O)c23)cc1C,0.721,-18.1,-39.4,27.7,-11.2%,-34.3,4.2,-2.0,i
CCOC(=O)c1sc(=S)n2c1[nH]c(=O)c1ccc(C(=O)OC)cc12,0.727,nt,nt,-7.2,0.1%,nt,-0.1,nt,nt
Cc1ccc(-c2nn3c(C)nnc3s2)cc1NC(=O)c1ccc(Br)o1,0.729,0.2,0.5,1.1,-5.7%,3.5,1.6,-2.2,i
CC(C)(C)[S@@](=O)N1Cc2cc(C(=O)NCc3ccc4c(c3)OCO4)nc(-c3cccc(-c4ccccc4)c3)c2[C@H]1CCO,nt,1.4,7.4,nt,nt,0.3,nt,4.3,i
CC1=C(C(=O)N(C(C)C)C(C)C)CC(CC(=O)NCCc2ccccn2)C(=O)N1CCC1=CCCCC1 (centres undefined),nt,0.5,-14.8,nt,nt,-4.6,1.3,1.3,i
O=S1(=O)N=C(N=Nc2c(O)[nH]c3ccccc23)c2ccccc21,0.684,-3.9,8.8,3.6,15.0%,-0.5,4.5,-1.2,i
COCCOC(=O)C1=C(C)NC(=O)NC1/C=C/c1ccccc1 (centres undefined),0.718,-0.7,1.3,-12.2,1.6%,9.8,-0.3,0.0,i
Cc1cc(=O)n2cc(-c3ccccc3)nc2[nH]1,0.666,nt,nt,87.2*,1.8%,nt,-0.5,nt,nt
O=C(COc1ncnc2scc(-c3ccccc3)c12)NC1CCCc2ccccc21 (centres undefined),0.672,5.3,4.9,-2.3,18.1%,-2.2,0.1,-10.6,i
O=C(C[C@@H]1C=C[C@H](NC(=O)CCN2CCCCC2)[C@@H](CO)O1)NCc1ccc(Cl)c(Cl)c1,nt,2.5,0.7,nt,nt,2.0,nt,1.8,i
CC(=O)c1c(C)c(C)c2n1CCn1c(C)ccc1-2,0.625,19.4,-0.3,12.9,29.5%,7.6,2.6,-3.7,i
Cc1ccc(-n2nc3cc(C)c(NC(=S)NC(=O)/C=C/c4ccco4)cc3n2)cc1,0.755,nt,nt,85.9*,nt,nt,2.8,nt,nt
C=CCn1c(Cc2c[nH]c3ccccc23)n[nH]c1=S,0.665,nt,nt,19.6,-0.7%,nt,1.5,nt,nt
Cc1ccc(C(=O)Nc2ccc(CC(=O)O)cc2)o1,0.712,nt,nt,-1.1,1.1%,nt,1.5,nt,nt
Cc1ccc(CN(C)C(=O)c2cc(S(=O)(=O)N3CCOCC3)ccc2F)o1,0.686,0.2,5.8,5.8,nt,1.7,1.5,2.2,i
CCOc1ccc(-n2c(SCC(=O)Nc3ccc4c(c3)OCO4)nc3c(c2=O)SCC3)cc1,0.766,-4.5,10.9,nt,nt,-1.4,-0.8,3.1,i
Cc1ccc(S(=O)(=O)Nc2ccc3c(c2)CC(=O)N([C@@H](C)CO)C[C@@H](C)[C@H](CN(C)Cc2ccc4c(c2)OCO4)O3)cc1,nt,32.0,-57.5,nt,nt,-12.1,nt,13.9,i
CCOC(=O)c1c(C)nc2c(c1-c1ccccc1)C(=O)c1ccccc1-2,0.719,nt,nt,-14.7,7.5%,nt,-1.6,nt,nt
NC(=O)CCN(Cc1ccccc1)S(=O)(=O)c1ccccc1,0.71,-4.5,-3.7,-2.9,0.1%,12.4,-0.2,nt,nt

Later entries.
SMILES,Ecoli growth,rRNA inh HTS RFP,rRNA inh HTS OD600,ALR H2O2 inh,Vif A3G,rRNA inh HTS,HNF4A DNA FP,MLL AF4-AF9 inh,FGF22 binding
COc1ccc(-c2nnn(CC#N)n2)cc1OC,0.757,nt,nt,-19.2,2.6%,nt,1.2,nt,nt
C[C@H]1CN([C@@H](C)CO)C(=O)Cc2cc(NC(=O)CCN3CCOCC3)ccc2O[C@H]1CN(C)Cc1ccncc1,nt,-1.0,2.2,nt,nt,1.0,nt,-3.0,i
COc1ccc(S(=O)(=O)N[C@@H]2CC[C@H](CC(=O)NCc3ccccc3F)O[C@@H]2CO)cc1,nt,5.0,12.2,nt,nt,-0.2,nt,-0.2,i
C[C@@H]1CN([C@H](C)CO)C(=O)c2c(c3ccccc3n2C)-c2ccccc2CO[C@@H]1CN(C)CC1CCCCC1,nt,4.5,-20.8,nt,nt,2.2,nt,11.2,i
COc1cccc(C2CCCN2Cc2nc(CC3CC3)no2)c1 (centres undefined),0.666,3.4,2.3,-8.5,0.4%,8.4,-2.0,0.7,i
COCC(=O)Nc1ccc2c(c1)[C@H]1C[C@@H](CC(=O)N(C)C)O[C@H](CO)[C@H]1O2,nt,-0.3,4.0,nt,nt,-1.0,nt,-7.1,i
Cc1noc(C)c1S(=O)(=O)Nc1ccc2c(c1)C(=O)N([C@H](C)CO)C[C@H](C)[C@@H](CN(C)S(=O)(=O)c1cn(C)cn1)OCCCC[C@H](C)O2,nt,-2.0,4.9,nt,nt,4.4,nt,-3.9,i
Cc1cc(C)cc(OCC(=O)O/N=C(\N)c2ccccn2)c1,nt,nt,nt,48.2,-1.5%,nt,2.6,nt,nt
CC(C)CNC(=O)c1cccc(NC(=O)c2ccco2)c1,0.668,5.8,5.3,0.6,2.3%,-2.6,0.8,-2.3,i
Cc1cc(C=O)c(C)n1-c1cc(C(F)(F)F)ccc1N1CCOCC1,0.675,nt,nt,-2.6,28.8%,nt,0.2,nt,nt
CCCNC(=O)N1c2ccccc2Sc2ccccc21,0.716,-1.6,-9.8,10.9,-3.9%,-17.8,2.2,-1.9,i
Cn1cc(C(=O)C(=O)N2CCCCC2)c2ccccc21,nt,0.0,12.2,nt,nt,5.3,-0.5,-2.4,i
Cc1ccc(F)c(CNC(=O)C2CCC(=O)N(CCCN3CCCC3=O)C2)c1F (centres undefined),0.697,0.9,8.4,-3.4,nt,3.1,4.6,0.9,i
